Source: PubChem BioAssay
2A StopGo: lowers the luciferase signal of an FMDV 2A StopGo reporter. 1.2% of 410,000 active. human cells with a luciferase reporter of 2A StopGo recoding; control for the full effect not named in the record. Potency, µM (top dose mostly 57.9 µM), without a hit: at the top dose signal change, negative = less light; active = well fitted falling curve with a large enough effect; inconclusive = small, poorly fitted or top-dose-only effect; inactive = no such curve, though single readings can be large or run the other way; tested in HEK293T cells; note: nearly all actives have a fitted effect of over 45% in size; luciferase light after 4 h
RE007 growth inh: less growth of the S. pombe RE007 Vpr strain. AID 651644. 0.21% of 360,000 active. Potency, µM (doses to about 92.2 µM), for inactives: at the highest dose activity change, negative = less growth. S. pombe RE007 Vpr strain, BacTiter-Glo ATP luminescence, 24 h; control for the full effect not named in the record; active = well fitted falling curve with a large enough effect; inconclusive = small, poorly fitted or top-dose-only effect; inactive = no such curve, though single readings can be large or run the other way;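 note: nearly all actives have a fitted effect of over 50% in size; the assay follows cell death caused by Vpr and the record does not say whether a fall means rescue or toxicity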
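Fission yeast RE007 carrying one integrated HIV-1 vpr copy, seeded at OD 0.01 in PMG+AL medium with 23 nL pinned compound. Grown 24 h at 30 degrees; viability read by BacTiter-Glo luminescence after 5 min.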
Numbers without * were called inactive; ? = inconclusive; & = joins results of further samples; [ ] = remark or other dose. % is set by controls: 0 for no effect and ±100 for the full control effect; potency is the fitted concentration of half-maximal effect. Only part of the results is shown (hit frequency here may not be typical).

Start of the listing, in advance:
SMILES | 2A StopGo | RE007 growth inh
CC(C)(C)S(=O)N1Cc2cc(C(=O)NCC(F)(F)F)nc(-c3cccc(-c4cccc(F)c4)c3)c2[C@H]1CCO (stereo partly drawn) | ? | 6.4%
CC(=O)N1CCC(C(=O)N2c3ccccc3N=C(c3ccc4c(c3)OCO4)C2C(=O)Nc2c(C)cccc2C)CC1 (stereo not drawn) | 16.8% | -3.8%
CCCCn1nnnc1C1(C)CCC(=O)N1CCc1ccc(OC)c(OC)c1 (stereo not drawn) | -19.5% | -9.6%

Results, from the first entry:
SMILES | 2A StopGo | RE007 growth inh
CC(C)(C)S(=O)N1Cc2cc(C(=O)NCC(F)(F)F)nc(-c3cccc(-c4cccc(F)c4)c3)c2[C@H]1CCO (stereo partly drawn) | ? | 6.4%
CC(=O)N1CCC(C(=O)N2c3ccccc3N=C(c3ccc4c(c3)OCO4)C2C(=O)Nc2c(C)cccc2C)CC1 (stereo not drawn) | 16.8% | -3.8%
CCCCn1nnnc1C1(C)CCC(=O)N1CCc1ccc(OC)c(OC)c1 (stereo not drawn) | -19.5% | -9.6%
Cc1cccc(C)c1NC(=O)C1(C)CSCC(=O)N1CC(F)(F)F (stereo not drawn) | -10.2% | 1.1%
C[C@@H]1CCC[C@]2(O[C@@H](CCO)C[C@@H](O)[C@@H]2O)O1 | -13.8% | -4.9%
CC[C@@H]1Cc2[nH][nH]c(=O)c2[C@@H](c2ccc(F)cc2)O1 | -14.8% | 10.1%
COc1cc(CNC(=O)Nc2nc(C(N)Cc3ccc(C(F)(F)F)cc3)cs2)cc(OC)c1OC (stereo not drawn) | -6.9% | 10.8%
COC(=O)C[C@H]1C[C@H]2c3cc(NC(=O)NC4CCCC4)ccc3O[C@H]2[C@@H](CO)O1 | 0.0% | -5.2%
CC(=O)Nc1ccc(S(=O)(=O)NCC(=O)OCC(=O)NCCc2ccccc2)cc1 | -4.2% | -5.3%
Cc1cc(=O)oc2cc(OCC(=O)NC3(C#N)CCCCC3)ccc12 | 2.6% | 0.3%
CCO[C@@H]1OC(C(=O)N2CCOCC2)=C[C@H](C(C)(C)C)[C@H]1CCCO | -9.1% | 10.0%
Cc1ccc(S(=O)(=O)NN=C2CC(C)(C)CC(=O)C2(C)C)cc1 | 52.4%[activator] | 7.8%
c1ccc(-c2nc(C3CCCCC3)c3sccc3n2)cc1 | -14.2% | 14.5%
CCCCCNC(=O)C(c1ccnc2ccccc12)n1c(=O)c(-c2ccccc2)nc2ccccc21 (stereo not drawn) | -2.3% | 11.1%
COc1ccc(CCN2CC(C(=O)NCCc3ncccc3C)CCC2=O)cc1 (stereo not drawn) | -14.1% | -21.4%
CCC(=O)N=c1sc2c(OC)ccc(OC)c2n1C | -13.4% | -2.6%
COc1ccc(-n2nnnc2C(c2ccccc2)N2CCC3(CC2)C(=O)NCN3c2ccccc2)cc1 (stereo not drawn) | -0.8% | -10.3%
Cn1c(=O)c2cc(NC(=S)NC3CCCCC3)ccc2n1Cc1ccc(F)cc1 | -1.4% | 16.2%
CS(=O)(=O)N1Cc2cnnn2-c2ccccc2C1C#N (stereo not drawn) | -1.6% | 16.6%
CC[C@@H](NCCCn1cnc2c(SC)ncnc21)c1ccccc1 | 0.0% | -25.8%
Cc1ccc(F)cc1-c1cc(C(=O)NCc2cc(C(F)(F)F)cc(C(F)(F)F)c2)[nH]n1 | -9.5% | 0.1%
CN(C(=O)COC(=O)c1cccc(S(=O)(=O)N2CCCCCC2)c1)c1ccccc1 | -2.2% | -3.0%
O=C(Nc1ccccc1Cl)OCC#CCOC(=O)Nc1ccccc1Cl | -24.5% | -18.2%
COc1cccc(-c2cnc(C(O)c3ccc(F)cc3)[nH]2)c1 (stereo not drawn) | 76.8%[activator] | 6.0%[18.4 µM]
Cc1cc(NC(=O)CS(=O)c2cn(Cc3cccc(Cl)c3)c3ccccc23)no1 (stereo not drawn) | -12.4% | -9.2%
O=C(NCc1ccccc1)c1cc(C2CCCCN2S(=O)(=O)c2cccc3cccnc23)on1 (stereo not drawn) | -1.8% | -2.7%
Cc1ccc(S(=O)(=O)Nc2ccccn2)c(C)c1 | 42.1%[activator] | 23.4%
C[C@@H]1CN([C@@H](C)CO)C(=O)CCCn2cc(nn2)CO[C@H]1CN(C)S(=O)(=O)c1ccccc1C#N | -5.7% | -4.4%
Cc1ccccc1-c1cnc(C(O)c2ccc(Cl)c(F)c2)[nH]1 (stereo not drawn) | 57.4%[activator] | -25.0%
COc1ccc(S(=O)(=O)N(C)C[C@H]2OCc3cnnn3CCCC(=O)N([C@@H](C)CO)C[C@H]2C)cc1 | -2.3% | 20.2%
CCC(=O)N[C@H]1C=C[C@H](CC(=O)OC)O[C@@H]1CO | -12.9% | 1.0%
CCOC(=O)[C@]12CCCC=C1N(CCc1ccc(OC)c(OC)c1)C(=O)[C@H](CC(=O)NCCCN1CCCC1=O)C2 | -14.2% | 0.0%
COc1ccccc1CN1CCNC(=O)C1CC(=O)N(C)C1CCOCC1 (stereo not drawn) | -7.7% | 7.6%
COCCCN1C(=O)C(CC(=O)NCc2ccco2)CC(C(=O)N2CCOCC2)=C1C (stereo not drawn) | -7.1% | 3.8%
CC(C)(C)OC(=O)NCCc1onc(-c2cccc([N+](=O)[O-])c2)c1C(=O)O | -24.7% | -2.6%
CCc1nc2ccc(C(=O)NCCCN3CCCC3=O)cn2c1N(C)C(=O)C1CCCCC1 | -1.2% | 5.7%
CCN(CC)C(=O)c1ccc2nc([C@H]3C[C@H](O)[C@@H](CO)O3)[nH]c2c1 | -3.5% | 3.9%[18.4 µM]
FC(F)(F)c1ccc(-c2cccc3c2C2CC3CCN2Cc2ccc3c(c2)OCO3)cc1 (stereo not drawn) | -23.0% | -8.0%
CCOc1ccc(C2C3=C(CC(C)(C)CC3=O)N(CCCOC)C3=C2C(=O)CC(C)(C)C3)cc1OC | -5.8% | 16.2%
CCOC(=O)C1C(OC(=O)c2ccccc2)CC2CCC1N2C (stereo not drawn) | -10.7% | -16.1%
CCCCCCCCN1CC(Cc2cc3ccccc3c3ccccc23)N(c2ccccc2)c2ccccc2C1=O (stereo not drawn) | -22.4% | -4.6%
Cc1ccccc1-c1nc(NC(C)C)nc2ccsc12 | 0.0% | -13.5%
COc1ccc(C(C#N)=Cc2cccc(OC)c2OC)cc1 | 35.8%[activator] | -22.0%
Cn1nc(C2CC2)cc1NC(=O)C1(C)CCN1C(=O)Cc1ccc(-c2ccccc2)cc1 (stereo not drawn) | -12.7% | 7.1%
CCC/C=C1/CCCOC(C(=O)NCc2ccccn2)(C(F)(F)F)C1 (stereo not drawn) | -17.8% | -1.0%
N[C@H](CO)Cc1ccccc1 | -10.9% | 8.8%
Cc1cccc(C(=Cc2ccc([N+](=O)[O-])cc2)C(=O)O)c1 | -9.6% | 5.9%
COC(=O)C1=C(c2ccc(OCc3ccccc3)cc2)C[C@@H]2CC[C@H]1N2C(=O)NCc1ccccc1OC | ? | -3.4%
CSCCC(C(=O)NC1CCCC1)n1c(-c2ccncc2)nc2ccccc21 (stereo not drawn) | -13.4% | -6.5%
Cc1ccc(C)c(NC(=O)C2CCCC2)c1 | -2.2% | 16.3%
COC(=O)[C@]12CCCCC=C1N(CCc1ccc(OC)c(OC)c1)C(=O)[C@H](CC(=O)N1CCOCC1)C2 | -16.9% | 1.1%
O=c1[nH]c(=S)[nH]c2c1C(c1ccc(F)cc1)OC(C1CCCCC1)C2 (stereo not drawn) | -24.3% | 1.3%
CCCCn1c(N)c(N(CCOC)C(=O)c2ccc(N3C(=O)c4ccccc4C3=O)cc2)c(=O)[nH]c1=O | -14.1% | -10.2%
O=C1[C@@H](Oc2ccccc2)[C@@H](c2ccccc2)N1c1cccnc1 | 0.0% | 7.9%
CC(O)(c1cccc(F)c1)c1nc(-c2csc3ccccc23)cs1 (stereo not drawn) | -20.4% | ?
Cc1cn(CC(=O)NCc2nc3ccccc3[nH]2)c(=O)[nH]c1=O | -14.5% | 0.4%
CC(=O)Nc1ccc(S(=O)(=O)NC(C)C(=O)OCC(=O)Nc2ccc(F)cc2Cl)cc1 (stereo not drawn) | -6.3% | 14.3%
CC1(C)CN(C2CCCCC2)C(=O)[C@H]1CC(=O)Nc1ccc(Br)cc1 | ? | 0.8%
O=C1Nc2ccccc2-n2nnnc2C1N1CCN(c2ccccn2)CC1 (stereo not drawn) | -11.2% | -12.8%
O=c1[nH]c2ccccc2n1C1CCN(C(CCc2ccccc2)c2nnnn2-c2ccc3c(c2)OCCO3)CC1 (stereo not drawn) | 25.1µM* | 5.2%

Whole records, quoted from the list.
Cc1ccccc1-c1cnc(C(O)c2ccc(Cl)c(F)c2)[nH]1 (stereo not drawn) reads 2A StopGo: 57.4%[activator]; RE007 growth inh: -25.0%
O=C1[C@@H](Oc2ccccc2)[C@@H](c2ccccc2)N1c1cccnc1 reads 2A StopGo: 0.0%; RE007 growth inh: 7.9%

(list continues)
SMILES | 2A StopGo | RE007 growth inh
CCCNC(=O)C1(C)CCCN(C(=O)C2(c3ccc(Cl)cc3)CCCC2)C1 (stereo not drawn) | -7.4% | 2.0%[18.4 µM]
Cc1cc(C)n2c(NC3CCCCC3)c(-c3cccnc3)nc2n1 | -21.4% | -9.2%
O=C(O)/C(=C\c1ccccc1)c1ccc2ccccc2c1 | 39.8%[activator] | 0.3%
CN(Cc1ccccc1)C(=O)c1ccc(NC(=O)Cc2ccc(NC(=O)C3CCCN(C(=O)C4CCC4)C3)cc2)cc1 (stereo not drawn) | ? | -4.0%
CCCCNC(=O)C1(C)CCN1C(=O)c1ccc2ccccc2n1 (stereo not drawn) | -2.4% | -15.6%
O=C(CCC1CCN(C(=O)C2CC=CCC2)CC1)Nc1ccccc1 (stereo not drawn) | ? | -0.1%
Cc1cc(C(=O)OC(C)C(=O)Nc2ccccc2)c(C)n1C1CC1 (stereo not drawn) | ? | 14.1%
CCCNC(=O)C1(C)CCCN(C(=O)c2ccc3sccc3c2)C1 (stereo not drawn) | -10.1% | -6.2%[18.4 µM]
COc1cccc(C(C)(O)c2nc(-c3cccc(C(=O)O)c3)cs2)c1 (stereo not drawn) | 18.1% | 8.7%
O=C(NCCN1CCC(n2c(=O)[nH]c3ccccc32)CC1)C(c1ccccc1)c1ccccc1 | -47.3% | -26.7%
CC(C)(C(=O)N1CCC1(C)C(=O)NS(=O)(=O)c1ccccc1Cl)c1ccccc1 (stereo not drawn) | 36.9%[activator] | 3.1%[18.4 µM]
O=C(NCc1cccc(Br)c1)C1CC(c2cc(C(F)(F)F)cc(C(F)(F)F)c2)=NO1 (stereo not drawn) | -11.7% | -4.0%
Cc1cccc(OC(C)C(=O)Nc2nc(-c3cccnc3)cs2)c1 (stereo not drawn) | 0.0% | 6.8%
O=C1CCC(c2ccccc2)(C2CCN(Cc3ccccc3)CC2)C(=O)N1 (stereo not drawn) | -22.2%&-7.4% | -8.2%
CCOC(=O)CNC(=O)N1Cc2cc(-c3ccccc3)ccc2-n2nncc2C1 | -9.6% | 4.6%
CCc1cc(-c2nnn(CCC3COCCO3)c2CC)cc(CC)c1-c1cn(Cc2ccc3ccccc3c2)nn1 (stereo not drawn) | ? | 7.7%
CC1(C(=O)NS(C)(=O)=O)CCN1C(=O)Cc1ccc(Cl)cc1Cl (stereo not drawn) | 2.6% | 7.5%
COc1ccc(/C=C2/SC(=O)N(CCNC(=O)C3CC(=O)N(Cc4ccccc4)C3)C2=O)cc1 (stereo not drawn) | 27.6% | -7.7%
COC(=O)[C@@]12C[C@@H](CC(=O)NCc3cccc4ccccc34)C(=O)N(Cc3ccccc3)C1=CCC(C)(C)C2 | -7.4% | -5.5%
CC(C)CNC(=O)c1cccc2c(-c3cccc(C(N)=O)c3)coc12 | 0.0% | -9.5%
CC(C)C[C@@H](CN1CCC[C@@H]1CN1C(=O)C(=O)NC[C@@H]1Cc1ccccc1)N1C[C@H](Cc2ccc(O)cc2)N(CCc2ccccc2)C(=O)C1=O | -13.9% | 10.5%
CC(C(=O)NC(C)(C)C)n1c(-c2ccc3c(c2)OCO3)nc2ccccc21 (stereo not drawn) | 32.7%[activator] | -6.3%
N#Cc1cc2cc(Cl)ccc2[nH]c1=O | -23.0% | -6.2%
CCCNC(=O)C1(C)CCCN(Cc2c3ccccc3nn2C)C1 (stereo not drawn) | -28.1% | -13.9%[18.4 µM]
CC(C)(C)OC(=O)N1CCC(NC(=O)c2[nH]c(C(F)(F)F)nc2-c2ccccc2)CC1 | ? | -7.0%
CCc1nc2c(OCC(=O)c3ccc(F)cc3)cccn2c1N(C)C(=O)c1ccccc1F | 3.4% | -21.4%
O=C(NCCCN1CCOCC1)c1cccc(NC(=O)c2ccccc2)c1 | 9.2% | 3.1%
O=c1[nH]c2ccccc2n1C1CCN(C(c2ccccc2)c2nnnn2Cc2ccccc2)CC1 (stereo not drawn) | -31.2% | 3.2%
C#CCN(C[C@H]1[C@H](OC(=O)NCc2ccccc2)[C@H](OC(=O)NCc2ccccc2)C[C@H]2C(=O)N(c3ccccc3)C(=O)[C@@H]12)S(=O)(=O)c1ccc(C)cc1 | -14.5% | -2.0%
CCOc1ccc(C(CN2CCOCC2)C(C)=O)cc1OC (stereo not drawn) | ? | -5.2%[18.4 µM]
CCCS(=O)(=O)NC(=O)C1(C)CCN(C(=O)Cc2ccc(OC)cc2)C1 (stereo not drawn) | -18.1% | 1.2%
COC(=O)C1=C(c2cc3ccccc3o2)C[C@@H]2CC[C@H]1N2C(=O)N1CCCCC1 | ? | -7.7%
